VACV mCherry inh: qHTS for Stage-Specific Inhibitors of Vaccinia Orthopoxvirus: mCherry Reporter Primary qHTS | Potency, µM (series often up to 36.5 µM), for the others: top-dose activity change, negative = inhibition, hits mostly inhibitors | Vaccinia virus mCherry reporter infection, fluorescence; about a quarter of the inactives have no number | 310,000 tested, 0.63% active; active = well fitted inhibition curve with a large enough effect; inconclusive = small, poorly fitted or top-dose-only effect; inactive = no such curve, though single readings can be large or run the other way; tested in A549 cells; further: nearly all actives have a fitted effect of over 35% in size; inactives centre near -10
VACV Venus inh: qHTS for Stage-Specific Inhibitors of Vaccinia Orthopoxvirus: Venus Reporter Primary qHTS; Vaccinia virus Venus reporter expression, fluorescence; AID 720580, 2013; Potency, µM (highest dose often 36.5 µM), for inactives: top-dose activity change, negative = inhibition, most hits filed as inhibitors; 330,000 tested, 0.46% active; active means well fitted inhibition curve with a large enough effect; inconclusive means small, poorly fitted or top-dose-only effect; inactive means no such curve, though single readings can be large or run the other way; tested in A549 cells; further: nearly all actives have a fitted effect of over 30% in size; inactives centre near -10
Active calls of the source: *; i = inactive; ? = inconclusive; nt = no result given; & = joins results of further samples; [ ] = dose if it differs, or a comment. On the % scale 0 is the no-effect control and ±100 the full control effect; potency means the concentration at half of the fitted maximal effect.

no. | mol | VACV mCherry inh | VACV Venus inh
1 | CS(=O)(=O)N1CCCC(C(=O)Nc2ccc(Br)cc2F)C1 (stereo not drawn) | -13% | -15%
2 | CCc1ccc(OCC(=O)NNC(=O)c2cc(S(=O)(=O)N(C)C)ccc2N2CCCC2)cc1 | i | -7%
3 | O=C(COC(=O)c1ccccc1)NCCCCc1ccccc1 | i | -1%
4 | O=c1cc2nc(-c3ccccc3)nc(SCCOc3ccc(Cl)cc3)n2[nH]1 | -6% | -11%
5 | O=C(c1cccs1)N(c1ccc(F)cc1)C1C=CS(=O)(=O)C1 (stereo not drawn) | -6% | -17%
6 | COc1cccc(C(=O)Nc2ccc3nc4n(c(=O)c3c2)CCCCC4)c1 | -5%&-13% | -22%&-9%
7 | c1coc(-c2nc3ccccc3s2)c1 | -13% | -6%
8 | O=c1c2ccccc2nc(-c2ccc(Br)cc2)n1Cc1ccccc1 | -13% | -9%
9 | CCN(CC)CCCC(C)NC(=O)c1cccc(S(=O)(=O)N2CCc3ccccc32)c1 (stereo not drawn) | 1% | -3%
10 | COC(=O)c1cc(C(=O)OC)cc(-n2c(C)cc(C(=O)COC(=O)CNS(=O)(=O)c3ccc(C)cc3)c2C)c1 | -12% | -5%
11 | CC(C)(C)OC(=O)CNC(=O)c1nc[nH]c1C(=O)NCc1ccc(CNC(=O)OC(C)(C)C)cc1 | -21% | -27%
12 | C/C(=N\NC(=O)CNC(=O)c1cccc(F)c1)c1ccc2ccccc2c1 | i | -13%
13 | C=CCn1c(=O)c2ccccc2n2c(SC(C)C(=O)Nc3nc(-c4ccccc4)cs3)nnc12 (stereo not drawn) | i | 0%
14 | CCNC(=S)N/N=C/c1ccco1 | -1% | -10%
15 | Cc1cccc(NCc2ccc(O)c3ncccc23)c1 | ? | -20%
16 | CCOc1ccccc1NC(=O)CSc1nc2c(c(=O)n1C)SC(C)C2 (stereo not drawn) | -14% | -6%
17 | COc1cc(OC)c(/C=N/n2c(C3CCCCC3)n[nH]c2=S)c(OC)c1 | -28% | -15%
18 | CCOc1cccc(-c2nc(C(N)=O)c3[nH]c(=O)n(-c4cccc(Cl)c4)c3n2)c1O | ? | -6%
19 | FC(F)(F)c1nnc2sc(-c3ccccn3)nn12 | -8% | -7%
20 | COC(=O)c1c(N)[nH]c(C(=O)c2ccccc2)c1-c1ccc(Br)cc1 | -7% | -5%
21 | CCOC(=O)Cn1nc(C)c(NC(=O)COc2ccc(Cl)cc2C)c1C | -6% | -2%
22 | Cc1ccc(-c2cn3cccnc3n2)cc1 | -18% | -9%
23 | Cc1cccc(-n2ncc3c2CCCC3NC(=O)C2CCOCC2)c1C (stereo not drawn) | -17% | -12%
24 | CN(Cc1ccccc1)c1ccc(C(CC(N)=O)NC(=O)Cc2ccc(Br)cc2)cc1[N+](=O)[O-] (stereo not drawn) | ? | ?
25 | COc1ccc(NC(=O)c2nc[nH]c2C(=O)N[C@@H](C)c2ccccc2)cc1 | i | -8%

Single records (already shown). Order of screens: VACV mCherry inh | VACV Venus inh
Record of Cc1cccc(-n2ncc3c2CCCC3NC(=O)C2CCOCC2)c1C (stereo not drawn) = -17% | -12%
Record of O=c1c2ccccc2nc(-c2ccc(Br)cc2)n1Cc1ccccc1 = -13% | -9%
Record of Cc1ccc(-c2cn3cccnc3n2)cc1 = -18% | -9%

The list continues.
no. | mol | VACV mCherry inh | VACV Venus inh
26 | O=C1c2cc(S(=O)(=O)N3CCOCC3)ccc2-c2ccc(S(=O)(=O)N3CCOCC3)cc21 | -8% | -13%
27 | Cc1ccc(NC(=O)Cn2cc(C(=O)c3ccco3)c3ccccc32)c(C)c1 | -24% | -20%
28 | Cc1ccc(CNC(=O)c2ccc(-c3nc(CN4CCc5ccccc54)c(C)o3)cc2)cc1 | -3% | -7%
29 | COc1ccc(C)cc1NC(=O)NCc1ccccc1F | -1% | -6%
30 | COc1ccc(C(=O)NC(=S)NC(C)c2ccccc2)cc1 (stereo not drawn) | -9% | -3%
31 | COc1cc2c(cc1OC)CN(C(=O)C1CCCN1S(=O)(=O)c1ccc(F)cc1)CC2 (stereo not drawn) | -15% | -15%
32 | CC(C)(C)CN1C(=O)C(=O)NC[C@@H]1Cc1ccc(O)cc1 | i | -3%
33 | O=C(c1ccc([N+](=O)[O-])o1)N1CCN(c2nc3c(F)cc(F)cc3s2)CC1 | i | -15%
34 | O=C(CNC(=O)c1cccs1)N/N=C/c1ccco1 | i | 1%
35 | CCOC(=O)N1CCN(C(=O)Cn2ncc3ccccc32)CC1 | i | -7%
36 | O=C(NNS(=O)(=O)c1ccc([N+](=O)[O-])cc1)c1ccncc1 | -17% | -2%
37 | COC(=O)CSc1ncc2c(n1)-c1ccccc1N(Cc1ccccc1C)S2(=O)=O | -9% | -3%
38 | CNCC(=O)c1ccccc1 | -12% | -1%
39 | Cc1ccc(S(=O)(=O)Oc2ccccc2C=C2C(=O)N(C)C(=O)N(C)C2=O)cc1 | i | -7%
40 | O=C(O)c1cc([N+](=O)[O-])c(NCc2cccnc2)c([N+](=O)[O-])c1 | 11% | -2%
41 | CCCCOC(=O)CSc1ncnc2sc3c(c12)CCC(C)C3 (stereo not drawn) | 1% | -6%
42 | CCOC(=O)N1CCN(c2ccc(C(=O)c3cccc(F)c3)cc2)CC1 | -26% | -16%
43 | O=C(O)CSc1nnc(-c2ccc(Cl)cc2Cl)n1-c1ccc(Br)cc1 | i | 0%
44 | CC(CNC(=O)c1ccc(CSc2nc3ccncc3n2Cc2cccc(F)c2)cc1)c1ccccc1 (stereo not drawn) | -30% | -23%
45 | Cc1ccc(NC(=O)C=NOCC(=O)Nc2cc(C)cc(C)c2)cc1 | -20% | ?
46 | O=C(OCc1cn([C@H]2CN(Cc3cccs3)[C@@H](c3ccc(Cl)cc3)C[C@@H]2O)nn1)c1ccccc1 | 0% | -8%
47 | O=C(COC(=O)c1ccc(O)cc1)NCCC1=CCCCC1 | -28% | -19%
48 | CCCCCCn1cnc2c(c1=O)c1nc3ccccc3nc1n2Cc1cccs1 | -17%[1.46 µM] | -7%
49 | CCC(=O)c1ccccc1OCC(=O)Nc1c(C)cccc1C | i | -11%
50 | O=c1c(/C=C(\O)c2ccccc2)nc2ccccc2n1-c1ccccc1 | nt | 89%[activator]

3 compounds drawn at random from those above, as already listed:
no. | mol | VACV mCherry inh | VACV Venus inh
35 | CCOC(=O)N1CCN(C(=O)Cn2ncc3ccccc32)CC1 | i | -7%
44 | CC(CNC(=O)c1ccc(CSc2nc3ccncc3n2Cc2cccc(F)c2)cc1)c1ccccc1 (stereo not drawn) | -30% | -23%
27 | Cc1ccc(NC(=O)Cn2cc(C(=O)c3ccco3)c3ccccc32)c(C)c1 | -24% | -20%

New compounds follow.
no. | mol | VACV mCherry inh | VACV Venus inh
51 | CCCCN(C)CCNC(=O)c1c2c(nc3ccccc13)C(=O)N(C1CCCCC1)C2 | -11% | -11%
52 | CSc1ccc(S(=O)(=O)NCC(=O)OC(C)C(=O)NCc2ccccc2)cc1[N+](=O)[O-] (stereo not drawn) | -11% | -5%
53 | O=C(CCN1CCOCC1)Nc1ccc2c(c1)CCC2 | -7% | 2%
54 | COc1cccc(-c2nn(-c3ccccc3)cc2CN(C)C(C)c2ccon2)c1 (stereo not drawn) | -16% | -6%
55 | COc1ccc(N2C(=O)C(Cl)=C(N3CCCC3)C2=O)cc1 | -12% | -9%
56 | NNC(=O)c1ccc(C(=O)N(c2ccccc2)c2ccccc2)cc1 | -8% | 14%
57 | Cn1ncc(Br)c1C(=O)N1CCOCC1 | i | -3%
58 | COc1ccccc1N1CCN(CC(=O)NC(=O)NCc2ccccc2)CC1 | -16% | -22%
59 | CCC1(Cc2ccccc2)NC(=O)c2ccccc2O1 (stereo not drawn) | i | -4%
60 | O=C1CC(c2cccnc2)c2cc3c(cc2N1)OCO3 (stereo not drawn) | -16% | -7%
61 | Cc1ccc(N(C(=O)CNC(=O)c2ccco2)C(C(=O)NC2CCCC2)c2ccncc2)cc1F (stereo not drawn) | -15% | -1%
62 | Cc1ccccc1NC(=O)c1cnc2ccccn2c1=O | i | -15%
63 | Cc1ccc(S(=O)(=O)Nc2c(C)n(C)n(-c3ccccc3)c2=O)cc1C(=O)NCc1ccccn1 | -3% | 1%
64 | CCOCC(=O)Nc1cccc(C(=O)OCC)c1 | nt | 7%
65 | Cc1ccc(C(=O)Nc2cccc(S(=O)(=O)N(C)c3ccccc3)c2)o1 | 5% | -20%
66 | CCN1C(=O)[C@H]2[C@@H](c3ccc(C)cc3)N[C@]3(CCCN(Cc4ccco4)C3=O)[C@H]2C1=O | -5% | -12%
67 | O=[N+]([O-])c1cccc(-c2nc(NCc3ccccc3)c3ccccc3n2)c1 | -8% | -16%
68 | COc1ccc(NC(=S)Nc2ccc(OC)cc2OC)c(OC)c1 | i | -7%
69 | O=C(O)c1ccc(/C=N/Nc2nc(N3CCCCC3)nc(N3CCCCC3)n2)cc1 | -2% | 3%
70 | CN(C)c1ccc(CCC2C=Cc3ccccc32)cc1 (stereo not drawn) | -4% | 4%
71 | CN1CCN(/N=C/c2ccc(-c3ccc([N+](=O)[O-])cc3)o2)CC1 | -13% | 8%
72 | CCn1cc(CN2CCCC(CO)(Cc3ccc(F)cc3)C2)c2ccccc21 (stereo not drawn) | ? | -3%
73 | CCCCn1c(=O)[nH]c(=O)c2c1nc(-c1ccc(-c3ccccc3Br)o1)n2CCOC | nt | -3%
74 | Cc1onc(-c2ccccc2)c1C(=O)N/N=C/c1ccc([N+](=O)[O-])s1 | ? | ?
75 | Cc1ccccc1-c1n[nH]nc1C1=CC(=O)CC(C)(C)C1 | i | -2%
76 | CCOC(=O)c1cccc(C2=C(CNC(=O)c3ocnc3C)[C@H]3CC[C@@H](C2)N3Cc2ccccc2)c1 | i | -17%
77 | Cc1cc(C)cc(N(CC(=O)Nc2ccccc2)C2=NC3CS(=O)(=O)CC3S2)c1 (stereo not drawn) | -3% | -11%
78 | CCOC1OC(=O)C(Cl)=C1Nc1ccccc1C (stereo not drawn) | -21% | -1%
79 | N#CCn1cc(/C=N/NC(=O)c2cc3c(ccc4ccccc43)o2)c2ccccc21 | -14%[7.34 µM] | -7%[7.34 µM]
80 | Cc1ccc(S(=O)(=O)Nc2cc3c(cc2NCc2ccccc2)n(C)c(=O)n3C)c(C)c1 | -21% | -8%
81 | Cc1[nH]cnc1CSCc1ccc(F)cc1 | i | -17%
82 | O=C(CSc1nnc(NC2CCCCC2)s1)NCc1ccco1 | -11% | -11%
83 | CCOC(=O)Cc1nc(-c2ccc(Cl)cc2)n[nH]1 | -14% | -8%
84 | CCCN1C2=NS(=O)(=O)CCN2c2ccccc21 | nt | -7%
85 | CCN=C1NN=C(c2ccc(C)cc2)CS1 | i | 0%
86 | CC(C)(C#N)NC(=O)c1ccco1 | -14% | -5%
87 | O=C(c1cccnc1)C1CCCN(Cc2ccc3c(c2)CN(C(=O)c2cccc(Cl)c2)CCO3)C1 (stereo not drawn) | -14% | -16%
88 | CCOC(=O)N1CCN(C(=O)c2c(-c3ccccc3)noc2C)CC1 | 6% | -8%
89 | CC(O)(CS(=O)(=O)c1ccccc1)C(=O)Nc1cccc(C(F)(F)F)c1 (stereo not drawn) | i | -7%
90 | CC1(C)CC(=O)C=C(Nc2ccc(Br)cc2F)C1 | 5% | -6%
91 | CC(=O)c1cccc(NC(=O)C(C)OC(=O)c2ccc(S(C)(=O)=O)c([N+](=O)[O-])c2)c1 (stereo not drawn) | -8% | -17%
92 | O=C(Nn1cc(C(=O)Nc2ccc(F)cc2F)c2ccccc2c1=O)c1cnccn1 | -10% | 1%
93 | Cc1cc(C(=O)Cn2nc(C(=O)O)c3ccccc3c2=O)c(C)n1-c1cccc(C(F)(F)F)c1 | -25% | 6%
94 | CCOc1c(Br)cc(CNc2ccc(N3CCOCC3)cc2)cc1OC | ? | 0%[7.34 µM]
95 | CCc1ccc(C(=O)c2cn(CC(=O)Nc3ccc(OC)cc3OC)c3ccc(CC)cc3c2=O)cc1 | -15% | -12%
96 | COc1ccc(Cl)cc1NC(=O)COC(=O)CCc1cc(OC)c(OC)c(OC)c1 | -8% | -2%
97 | Cc1ccc(S(=O)(=O)NCC(=O)N(c2ccccc2)C(C(=O)NCc2ccccc2)c2ccco2)cc1 (stereo not drawn) | -10% | ?
98 | CSc1nc2sc(-c3ccccc3)cc2c(=O)n1N | i | -3%
99 | O=C(Nc1nnc(-c2ccc(Cl)cc2)o1)c1cccc(N2C(=O)CCC2=O)c1 | -6% | -19%
100 | CCOc1ccc(CN(C)CC(O)COC(c2ccc(OC)cc2)c2ccc(OC)cc2)cc1 (stereo not drawn) | -29% | -21%

Further compounds.
no. | mol | VACV mCherry inh | VACV Venus inh
101 | O=[N+]([O-])c1cc(C(F)(F)F)cc([N+](=O)[O-])c1N1CCCNCC1 | ? | -11%
102 | O=C(c1cccc(-c2ccc(O)cc2)c1)N1CCOCC1 | -11% | -1%
103 | Cc1cccc(C(=O)Nc2cccc(OCc3cc(=O)n4cc(C)sc4n3)c2)c1 | -1% | -8%
104 | CCOC(=O)N1CCC(NS(=O)(=O)c2cc(Br)cnc2N)CC1 | -13% | -28%
105 | Cc1ccc(NCCC(=O)c2ccccc2)cc1Cl | -3% | 0%
106 | O=C(NCCc1ccccn1)C1CCN(S(=O)(=O)c2ccc3ccccc3c2)CC1 | -9% | -20%
107 | Cc1ccc(NC(=O)CN(C)S(=O)(=O)c2cccc3nsnc23)cc1 | nt | ?
108 | CSc1ncccc1C(=O)OCC(=O)c1ccccc1 | -13% | -12%
109 | O=C(Nc1ccc(F)cc1)c1ccc2c(c1)NC(=O)c1ccccc1S2 | ? | -24%

Assay outcomes from PubChem BioAssay.
